Screening results deposited in PubChem BioAssay by National Center for Advancing Translational Sciences (NCATS).
Vaccinia Venus: qHTS for Stage-Specific Inhibitors of Vaccinia Orthopoxvirus: Venus Reporter Primary qHTS | 330,000 compounds, 0.46% hits | Potency, µM (titrated, usually from 36.5 µM), without a hit: top-dose activity change, negative = inhibition, usual class: inhibitors | Vaccinia virus Venus reporter expression, fluorescence; active means well fitted inhibition curve with a large enough effect; inconclusive means small, poorly fitted or top-dose-only effect; inactive means no such curve, though single readings can be large or run the other way; tested in A549 cells; further: nearly all actives have a fitted effect of over 30% in size; inactives centre near -10
VACV mCherry inh: qHTS for Stage-Specific Inhibitors of Vaccinia Orthopoxvirus: mCherry Reporter Primary qHTS. Vaccinia virus mCherry reporter infection, fluorescence; about a quarter of the inactives have no number. Potency, µM (doses to about 36.5 µM), for inactives: top-dose activity change, negative = inhibition, actives largely listed as inhibitors. 310,000 compounds, 0.63% hits. AID 720579, 2013; active = well fitted inhibition curve with a large enough effect; inconclusive = small, poorly fitted or top-dose-only effect; inactive = no such curve, though single readings can be large or run the other way; tested in A549 cells; further: nearly all actives have a fitted effect of over 35% in size; inactives centre near -10
Starred values were filed as active, the others as inactive; i = inactive; ? = inconclusive; nt = no result given; & = joins results of further samples; [ ] = another dose, or the depositor's remark. On the % scale 0 is the no-effect control and ±100 the full control effect; potency means the concentration at half of the fitted maximal effect.

SMILES	Vaccinia Venus	VACV mCherry inh
CC(C)(C)OC(=O)C[C@@H]1C/C=C\C[C@H](CC(=O)N(CCO)Cc2ccccc2)C(=O)N[C@@H](Cc2c[nH]c3ccccc23)COC1=O	-25%	-21%
Cc1ccc(CN2CCN(C(=O)c3ccncc3)CC2)cc1	-5%	i
CC(=O)NC1(C(F)(F)F)C(=O)Nc2c1c(=O)n(C)c(=O)n2C (configuration not stated)	-1%	-8%
CC(=O)c1ccc(N2CCN(C(=O)C3CCN(S(=O)(=O)c4c(C)noc4/C=C/c4ccc(C)cc4)CC3)CC2)cc1	-15%	-22%
Cc1cccc(C)c1NC(=O)CNC(=O)c1ccccc1OCc1ccccc1	-14%	-3%
CCC(=O)Nc1c2c(nn1-c1ccc(F)cc1)CS(=O)C2 (configuration not stated)	-11%	-15%
CCCC(CCC(=O)Nc1ccn(-c2ccccc2)n1)C(=O)O (configuration not stated)	6%	i
Cc1ccnc2ccc(SC(F)(F)F)cc12	-17%	-3%
COc1ccc(-c2nc(-c3ccc(Br)o3)no2)cc1OC	-24%	-17%
Cc1c(C(=O)N/N=C/c2ccccn2)nnn1-c1nonc1N	-6%	-9%
CN1CCN(C(=O)c2ccc3c(c2)N(Cc2ccccc2)CCS3)CC1	-20%	?
CC(=O)c1ccc(OCc2cc(C(=O)N(C)C(C)c3nccs3)no2)cc1 (configuration not stated)	-15%[7.34 µM]	i[7.34 µM]
COc1ccc(-c2cc3ccccc3[nH]2)cc1	-7%	-11%
COc1cc2c(cc1[N+](=O)[O-])-c1ccc([N+](=O)[O-])cc1C2=NNC(N)=S	-20%	i
COc1cccc(NC(=O)CC(C)S(=O)(=O)c2ccc3c(c2)NC(=O)CO3)c1 (configuration not stated)	-4%	-1%
O=C(NC1CCN(S(=O)(=O)c2ccccc2C(F)(F)F)CC1)c1ccco1	-21%	-17%
NC1=NC(=O)/C(=C/c2ccccc2OS(=O)(=O)c2ccc3ccccc3c2)S1	-5%	i
Cc1ccccc1CCNC(=O)CCn1ccc2cc(S(=O)(=O)N3CCCC3)ccc21	-10%	-5%
CC(C)C[C@@H](CO)N1CCN(Cc2cccnc2)CCC1=O	-11%&-5%	i
N[C@H](C(=O)O)[C@@H]1[C@@H](C(=O)O)C1(F)F	-8%	-7%
COc1ccc(N/C(N)=N/c2nc(C)cc(=O)[nH]2)cc1	-8%	-22%
O=C1CCCC(=O)N1c1ccc(Oc2ccc(Cl)cc2)cc1	-10%	i
CCC(Sc1nc2nccnc2c(=O)n1Cc1ccc(C)cc1)C(=O)NC1CCCCC1 (configuration not stated)	-2%	-7%
COc1ccc(CN2CCNC(=O)C2CC(=O)N(C)C2CCCCC2)cc1OC (configuration not stated)	-7%	-14%
COc1ccccc1C(=O)NC(=O)COC(=O)c1ccc(Br)o1	-11%	-9%
O=C(Nc1cccc(-c2nc3ccccc3o2)c1)c1cccc2c(Cl)cccc12	-9%	-3%
CCOC(=O)C1CCN(C(=O)c2cc3c(-c4ccc(OC)c(OC)c4)nn(C)c3s2)CC1	-12%	-6%
CN(C)CCCN(C(=O)c1ccc2c(c1)CCCC2)c1nc2c(F)cccc2s1	-20%	-30%
Cc1[nH]n2c(=O)cc(C(C)C)nc2c1-c1ccccc1	-20%	-7%
CCOC(=O)N1CCC(NC(=O)c2c(C)nn(-c3cccc(C)c3)c2-n2cccc2)CC1	-9%	-11%
COc1cccc(OCCNC(=O)CSc2ccc(C(F)(F)F)cc2[N+](=O)[O-])c1	-8%	-14%
COC(=O)C1CN(C(=O)COc2ccccc2C)c2ccccc2O1 (configuration not stated)	-9%	-16%
O=C(Nc1ccccc1)C1CCCN1S(=O)(=O)c1cccs1 (configuration not stated)	-13%	-12%
COCCNC(=O)COc1ncnc2ccc(Br)cc12	0%	nt
CC(C)(C)CNC(CO)C12CC3CC(CC(C3)C1)C2 (configuration not stated)	5%	nt
CC1CCN(CC(=O)NC(=O)NCc2ccccc2)CC1	-7%	-23%
CC1(C(=O)NCc2cccc3ccccc23)CCN1Cc1cc2ccccc2o1 (configuration not stated)	-1%	0%
CC1=CC(=O)C(C(C)=Nc2cccc(Cl)c2)C(=O)O1 (configuration not stated)	1%	i
Cc1c(C(=O)NNC(=O)c2ccccc2O)oc2ccc(Br)cc12	-7%	i
CC(C)C[C@H]1CNC(=O)C(=O)N1C[C@H]1CCCN1C[C@H](CC(C)C)N1C[C@H](Cc2ccccc2)N(CC2CCCCC2)C(=O)C1=O	-12%	-6%
COc1cccc(C(=O)Nc2nnc(-c3cccs3)o2)c1	-11%	-49%
N#Cc1c(-c2ccccc2)c(-c2ccccc2)nn(CC(=O)NNC(=O)Nc2ccccc2)c1=O	?	nt
Cn1cccc1C(=O)Nc1ccc(Cl)c(S(=O)(=O)N2CCCCC2)c1	-25%	-22%
Cc1nc(NC(=O)c2ccccc2)sc1-c1csc(Nc2ccc(C(=O)O)cc2)n1	-1%	i
Cc1oc(-c2cc3c(cc2Cl)OCO3)nc1CN1CCCC1c1ccc(F)cc1 (configuration not stated)	0%	-25%
COc1ccc(NC(=O)C2Cc3ccccc3CN2S(=O)(=O)c2ccccc2)cc1OC (configuration not stated)	-14%	-5%
Cn1c(=O)c2c(nc(NCCOc3ccc(F)cc3)n2C)n(C)c1=O	-13%	-25%
Cc1n[nH]c(C)c1S(=O)(=O)N(CC(=O)Nc1ccc(C(F)(F)F)cc1)c1ccc(C(C)C)cc1	?	?
COc1ccc(CNC(=O)C(=O)c2cn(CC(=O)N3CCCC3)c3ccccc23)cc1	-16%	-6%
CC1CCCCC1NC(=O)c1nn(C)c(=O)c2ccccc12 (configuration not stated)	-10%	i
CCc1cc2c(cc3c(=O)n(CC(=O)N4CCN(c5cccc(C)c5C)CC4)nc(CC)n32)s1	-8%	-14%
COC(=O)C1=C(c2ccccc2)c2ccccc2S(=O)(=O)N1CC(=O)Nc1ccccc1C(F)(F)F	-1%	-4%
O=[N+]([O-])c1ccc2c(c1)/C(=N\O)c1ccccc1-2	-14%	-10%
NCC(CC(=O)O)c1ccc(Cl)cc1 (configuration not stated)	?	-5%
O=C(/C=C/c1ccccc1)NCCc1c[nH]c2ccccc12	3%	-21%
CCN(CC)S(=O)(=O)c1ccc(N2CCc3cc(OC)c(OC)cc3C2)nc1	0%	-24%
COc1cccc(CN2CCCC(C(=O)c3ccc4c(c3)OCO4)C2)c1OC (configuration not stated)	-9%	-22%
O=C1C(O)CC2c3ccccc3CC3(CCCC3)N12 (configuration not stated)	0%	1%
COc1ccc2c(c1)c(CC(=O)OCC(=O)N(C)C)c(C)n2C(=O)c1ccc(Cl)cc1	14%	8%
COc1ccc(-c2nc3c(-c4ccccc4)cnn3cc2C)cc1F	8%	0%
Next structures follow:
SMILES	Vaccinia Venus	VACV mCherry inh
O=S(=O)(NCc1nc2cccnc2n1Cc1ccccc1Cl)c1ccc2c(c1)CCCC2	-14%	-7%
CCNC(=O)COc1ccc(CC)cc1	0%	i
O=C(COC(=O)C1CCN(c2ccc(C(F)(F)F)cn2)CC1)NCc1ccc(Cl)cc1Cl	-14%	-15%
CC/C(C)=N\NC(=O)CNC(=O)c1ccc(Cl)cc1Cl	-15%	i
C=CCCC(=O)N1C[C@H]2CON(C)[C@H]2C[C@H]1c1ccc(N2CCCCC2)cc1	19%	25%
O=C1N[C@@H](Cc2ccccc2)[C@@H](c2ccco2)O1	-6%	i
O=C(Nc1ccc(CN2CCCCC2)cc1)c1c(F)c(F)c(F)c(F)c1F	-22%	-20%
O=C(COC(=O)c1cnccn1)Nc1ccc(Cl)cc1	-5%	-11%
O=C(/C=C/c1ccco1)Nc1ccc(Cl)c(-c2nc3cc(Cl)ccc3o2)c1	-6%[7.34 µM]	-12%[7.34 µM]
COc1cccc(Cn2c(=O)n(-c3ccc(C)c(F)c3)c(=O)c3sc4ccccc4c32)c1	1%	2%
COc1ccc(C(=O)CN2C(=O)c3ccccc3C2=O)cc1	-2%	-9%
COc1cccc(N=Nc2c(N)[nH]n3c(=O)c4c(nc23)CCCC4)c1	?	?
Cc1ccc(CSCC(Nc2ccc(C(=O)O)cc2[N+](=O)[O-])C(=O)O)cc1 (configuration not stated)	-5%	-9%
Cc1ccc(C2C3=C(CC(C)(C)CC3=O)N(CCN3CCOCC3)C3=C2C(=O)CC(C)(C)C3)cc1	5%	2%
COc1ccc(N2C(=O)CC(SC(C)C)C2=O)cc1 (configuration not stated)	-5%	-8%
O=C(Oc1ccc(N2C(=O)CCC2=O)cc1)c1ccccc1	-3%	-11%
C/C(=N\NC(=O)c1ccc(Br)cc1)c1ccccc1	?	-3%[1.46 µM]
CC1c2nc3ccccc3n2C(CC(=O)NCc2ccccn2)C(=O)N1Cc1ccccc1 (configuration not stated)	-4%	i
CC(=O)NN1C(=O)c2ccccc2NC1c1ccoc1 (configuration not stated)	0%	i
COc1ccc2[nH]c3c(c2c1)CCn1c-3nc2ccccc2c1=O	8%	-7%
O=C(O)c1ccc(Cl)c(S(=O)(=O)NC(Cc2ccccc2)C(=O)O)c1 (configuration not stated)	-12%	i
CCOc1ccccc1NC(=O)Cn1c(=O)n(Cc2cccs2)c(=O)c2cccnc21	-5%	-12%
CCOC(=O)c1ccc(NC(=O)CCN2C(=O)C3CC=CCC3C2=O)cc1 (configuration not stated)	-23%	-21%
Cc1nn(Cc2ccc(Cl)cc2)c(=O)n1N(C)c1ncc(C(F)(F)F)cc1Cl	-18%	-24%
Cc1c(NC(=O)c2cccc(NC(=O)Cc3ccccc3Cl)c2)c(=O)n(-c2ccccc2)n1C	-4%	-3%
O=C(CCC1N=C2c3ccccc3N=C(SCC(=O)Nc3ccc(F)cc3)N2C1=O)NCc1cccs1 (configuration not stated)	42%[activator]	-28%
Cc1cccc(C2c3[nH]c4ccccc4c3CCN2C(=O)c2cc(CC(C)C)nc(C)n2)n1 (configuration not stated)	-3%	-13%
COc1ccc2nc(C3CCCCC3)c3c(c2c1)CCC3	-16%	?
Cc1cccc(NC(=O)CSCC(=O)Nc2cccc(S(=O)(=O)N3CCCCCC3)c2)c1	-17%	-2%
COc1ccc(C(C(=O)Nc2ccc(F)cc2)N2CCN(c3ccncc3)CC2)cc1 (configuration not stated)	-13%	3%
Cc1ccc(NC(=O)Cn2nc(-c3ccncc3)ccc2=O)cc1Cl	-5%[7.34 µM]	-9%[7.34 µM]
O=C(COc1ccc(Cl)cc1)NCc1nnc(SCC(=O)NC2CCCCC2)o1	-14%	-24%
COc1ccc(C(=O)C2CCCN(CCc3ccccc3)C2)cc1OC (configuration not stated)	-2%	13%
CN(C(=O)COC(=O)CSc1ccccc1)c1c(N)n(Cc2ccccc2)c(=O)[nH]c1=O	-24%	-6%
COCCCN1CC(=O)N2C(c3ccccc3)c3[nH]c4ccccc4c3C[C@H]2C1=O (some centres not stated)	-17%	-17%
Cc1cc(C(=O)OCC(=O)Nc2ccc(F)c(F)c2F)c(C)o1	5%	-3%
CCn1c(COc2c(C)cccc2C)nnc1SCC(=O)N1CCN(c2ccccc2)CC1	?	nt
COc1cc(NS(=O)(=O)c2ccc(NC(=O)c3cccc(F)c3)cc2)nc(OC)n1	-7%	-16%
CC(=O)Nc1ccc(NC(=O)N2CCOCC2)cc1	-4%	-7%
CCCCSc1nc2c(c(=O)[nH]1)CCC2	-19%	-26%

In the list so far, these have a CF3 group.
SMILES	Vaccinia Venus	VACV mCherry inh
CC(=O)NC1(C(F)(F)F)C(=O)Nc2c1c(=O)n(C)c(=O)n2C (configuration not stated)	-1%	-8%
Cc1ccnc2ccc(SC(F)(F)F)cc12	-17%	-3%
O=C(NC1CCN(S(=O)(=O)c2ccccc2C(F)(F)F)CC1)c1ccco1	-21%	-17%
COc1cccc(OCCNC(=O)CSc2ccc(C(F)(F)F)cc2[N+](=O)[O-])c1	-8%	-14%
Cc1n[nH]c(C)c1S(=O)(=O)N(CC(=O)Nc1ccc(C(F)(F)F)cc1)c1ccc(C(C)C)cc1	?	?
COC(=O)C1=C(c2ccccc2)c2ccccc2S(=O)(=O)N1CC(=O)Nc1ccccc1C(F)(F)F	-1%	-4%
O=C(COC(=O)C1CCN(c2ccc(C(F)(F)F)cn2)CC1)NCc1ccc(Cl)cc1Cl	-14%	-15%
Cc1nn(Cc2ccc(Cl)cc2)c(=O)n1N(C)c1ncc(C(F)(F)F)cc1Cl	-18%	-24%

Structures listed so far that have a tert-butyl group:
SMILES	Vaccinia Venus	VACV mCherry inh
CC(C)(C)OC(=O)C[C@@H]1C/C=C\C[C@H](CC(=O)N(CCO)Cc2ccccc2)C(=O)N[C@@H](Cc2c[nH]c3ccccc23)COC1=O	-25%	-21%
CC(C)(C)CNC(CO)C12CC3CC(CC(C3)C1)C2 (configuration not stated)	5%	nt

Next part:
SMILES	Vaccinia Venus	VACV mCherry inh
COC(=O)c1cc(CNC(=O)c2ccc(S(=O)(=O)N(C)c3ccccc3)cc2)ccc1OC	-22%	-7%
Cc1cccc(NC(=O)CNC(=O)c2ccco2)n1	-5%	-11%
CS(=O)(=O)c1ccc(Cl)c(NC(=O)COC(=O)c2c(Cl)cccc2Cl)c1	-8%	-29%
C(=Nc1ccc(/C=C/c2ccnc3ccccc23)cc1)Nc1ccc(/C=C/c2ccnc3ccccc23)cc1	-28%	-9%
Nc1ccc(S(=O)(=O)NCc2ccccn2)cc1	-11%	i
CCOC(=O)c1nnn(-c2nonc2N)c1CNc1ccc(C)c(Br)c1	-5%	-11%
